Bioassay records from PubChem.
CtBP-E1A inh = blocks the CtBP interaction with E1A; AlphaScreen GST-E1A/His-CtBP binding, 1536-well; stronger effect = lower value; control for the full effect not named in the record; activity change, % (concentration not given with the values); 0.49% of 340,000 active; in the data active means activity change below about -65%; inconclusive means about -30% to -65%; inactive means above about -30%; note: % is set by controls: 0 for no effect and ±100 for the full control effect
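In 5 uL wells, 23 nL compound meets equimolar GST-E1A and His-CtBP (5X stock 125 nM each) for 2 h, 37 °C. Beads (5X, 50 ug/mL) then 1 h, 37 °C, dark.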
Sfp PPTase inh = Sfp phosphopantetheinyl transferase inhibition; AID 1490; 3.5% of 310,000 active; Q9F4F7; Potency, µM, for the others: max response, negative = inhibition, actives largely listed as inhibitors; Biochemical Sfp PPTase activity, qHTS; active = well fitted inhibition curve with a large enough effect; inconclusive = small, poorly fitted or top-dose-only effect, or another doubt; inactive = no such curve, though single readings can be large or run the other way;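 note: the enzyme is Sfp with the accession as filed and its product quenches rhodamine fluorescence; potency is the fitted concentration of half-maximal effect; 0% = enzyme reaction without inhibitor and -100% = no enzyme wells; top concentration of the series not given in the record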
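Reaction rates are the 30-min fluorescence difference (ex 525, em 598 nm) in wells containing 15 nM Sfp, 5 uM rhodamine-CoA and 12.5 uM BHQ-2-YbbR at pH 7.6 with 10 mM MgCl2.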
Menin-MLL FL inh = inhibitors of human menin-MLL interaction, wild-type MLL peptide; Fluorescence polarization, fluorescein-MLL peptide displacement from menin; 290,000 tested, under 10 active; FP activity change, % at 61.4 µM; AID 1766; inconclusive = falling polarisation curve, or a change in total fluorescence; inactive = total fluorescence flat and polarisation flat or rising; no compound was filed as active; the % refers to the polarisation; negative = inhibition;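 note: % of control where 0% means no effect; inhibitors lower the polarisation; unlabelled MLL peptide was the positive control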
gsp antagonist = antagonists of gsp mutant (McCune-Albright syndrome); gsp-mutant cells, cAMP HTRF, 30 min; control for the full effect not named in the record; Potency, µM (series often up to 76.9 µM), inactives show at the highest dose activity change, negative = inhibition, hits mostly inhibitors; 0.4% of 340,000 active; AID 624288; active = falling curve of any shape with a large fitted effect; inconclusive = falling curve, mostly with a smaller effect; inactive = flat or rising curve; cell line not stated here;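 note: intracellular cAMP measured with PDE inhibitor Ro 20-1724 present during compound exposure; potency is the fitted concentration of half-maximal effect; % is set by controls: 0 for no effect and ±100 for the full control effect; nearly all actives have a fitted effect of over 65% in size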
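G418-selected cells were plated in DMEM/10% FBS for 16-24 h at 37C, then treated with compounds plus the PDE inhibitor […] (300 uM solution added) for 30 min at 37C. Intracellular cAMP was measured by HTRF after 30 min lysis at room temperature.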
gsp ag = gsp mutant agonism; gsp mutant cells, cAMP HTRF, 30 min; control for the full effect not named in the record; AID 624287; 0.13% of 340,000 active; Potency, µM (highest dose often 76.9 µM), without a hit: top-dose activation (cAMP increase), hits mostly activators; active = well fitted activation curve with a large enough effect; inconclusive = small, poorly fitted or top-dose-only effect, or another doubt; inactive = no such curve, though single readings can be large or run the other way; cell line not stated here;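 note: phosphodiesterase inhibitor Ro 20-1724 added with compounds to block cAMP breakdown; potency is the fitted concentration of half-maximal effect; nearly all actives have a fitted effect of over 60% in size; about a fifth of the inactives were tested at one dose only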
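Cells stably selected in G418 were plated at 2000/well, grown 16-24 hr, then given compounds in DMSO with the PDE inhibitor […] (300 uM solution added) for 30 min at 37C; cAMP was read by HTRF.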
ClpP mod = qHTS Assay for Activators of ClpP; ATP-dependent Clp protease proteolytic subunit (Bacillus subtilis (strain 168)), P80244; purified B. subtilis ClpP, FRET peptide cleavage, 20 min; Potency, µM (series often up to 57.5 µM), without a hit: top-dose activity change, negative = active; 1.9% of 340,000 active; active = well fitted falling curve with a large enough effect; inconclusive = small, poorly fitted or top-dose-only effect; inactive = no such curve, though single readings can be large or run the other way; note: potency is the fitted concentration of half-maximal effect; the source files actives as falling curves though it sought activators and does not explain the sign; nearly all actives have a fitted effect of over 65% in size; many hits overshoot -100%
Target sequence (P80244 whole entry, looked up): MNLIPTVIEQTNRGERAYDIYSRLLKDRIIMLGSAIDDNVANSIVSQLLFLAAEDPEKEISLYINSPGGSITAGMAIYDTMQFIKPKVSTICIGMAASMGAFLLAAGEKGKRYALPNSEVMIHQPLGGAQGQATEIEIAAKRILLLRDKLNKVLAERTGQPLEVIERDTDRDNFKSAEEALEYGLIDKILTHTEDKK
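FRET quenching reversal measured ClpP activation: 10 microg/mL B. subtilis ClpP at pH 8 with the FRET-FV decapeptide, read at 430 nm after 320 nm excitation. The 20-min minus 0-min signal was scaled between DMSO/no-enzyme wells and ADEP (5.8 microM final).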
TRPV1 potentiator = enhances activation of the human vanilloid receptor TRPV1; Q8NER1; TRPV1-expressing cells, Fluo-8 calcium influx, capsaicin EC20 potentiation; host cell line not named in the record; control for the full effect not named in the record; potentiation, % at 8.33 µM; 0.02% of 320,000 active; AID 540277; active means potentiation above 80%; inconclusive means 30% to 80%; inactive means below 30%; note: 0% is about no effect
Target sequence (Q8NER1 whole entry, looked up): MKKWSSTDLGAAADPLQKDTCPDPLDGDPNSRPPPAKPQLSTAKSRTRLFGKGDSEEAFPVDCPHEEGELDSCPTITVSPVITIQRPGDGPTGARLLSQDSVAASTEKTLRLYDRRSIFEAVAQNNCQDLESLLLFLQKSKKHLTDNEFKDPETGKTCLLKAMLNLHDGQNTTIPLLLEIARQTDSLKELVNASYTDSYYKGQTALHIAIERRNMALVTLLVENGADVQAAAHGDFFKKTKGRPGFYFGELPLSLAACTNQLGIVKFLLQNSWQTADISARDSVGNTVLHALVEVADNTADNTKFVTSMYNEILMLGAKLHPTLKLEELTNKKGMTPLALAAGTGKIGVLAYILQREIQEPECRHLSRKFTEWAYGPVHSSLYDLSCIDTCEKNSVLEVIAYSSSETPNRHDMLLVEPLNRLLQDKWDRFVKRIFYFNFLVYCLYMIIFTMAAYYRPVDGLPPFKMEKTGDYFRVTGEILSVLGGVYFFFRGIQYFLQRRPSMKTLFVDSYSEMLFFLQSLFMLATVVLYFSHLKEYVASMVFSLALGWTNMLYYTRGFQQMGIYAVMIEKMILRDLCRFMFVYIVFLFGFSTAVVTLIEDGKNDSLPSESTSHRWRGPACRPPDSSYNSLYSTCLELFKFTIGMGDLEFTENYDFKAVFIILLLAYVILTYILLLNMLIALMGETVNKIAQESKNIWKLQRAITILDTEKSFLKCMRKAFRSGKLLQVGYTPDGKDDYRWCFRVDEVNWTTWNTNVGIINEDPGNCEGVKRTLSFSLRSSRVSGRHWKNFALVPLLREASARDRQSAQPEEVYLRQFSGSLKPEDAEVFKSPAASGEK
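TRPV1-expressing cells were cultured overnight at 35.5C and loaded with Fluo-8 calcium dye for 40 to 90 min at room temperature. After a 10 s baseline, compound was added and calcium influx was read kinetically for 3 min (ex 480/em 520 nm).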
* marks the source's active call; other numbers are inactive results; ? = inconclusive; nt = not tested or not shown; & = joins results of further samples; [ ] = remark or other dose.

SMILES	CtBP-E1A inh	Sfp PPTase inh	Menin-MLL FL inh	gsp antagonist	gsp ag	ClpP mod	TRPV1 potentiator
Cc1onc(-c2c(F)cccc2Cl)c1C(=O)NC(=S)NC1CCS(=O)(=O)C1 (stereo not given)	1	-4%	9.9	-6%	?	1.3%	0
O=C(CCCCCN1C(=O)[C@@H]2Cc3ccccc3CN2C1=O)Nc1ccccc1Cl	nt	21%	3.8	9%	-4%	2.3%	-22
CCc1c(C)c(C#N)c2nc3ccccc3n2c1NCCOC	2	-1%	5.5	-8%	?	-15%	10
Cn1cnnc1SCc1ccc(-c2ccc(Br)cc2)o1	4	45µM*	14	4%	3%	-2.4%	-20
Cn1nc(-c2ccccc2)c(COC(=O)c2cccc(Cl)c2)c1S(=O)(=O)c1ccccc1	7	5%	0.1	-9%	-23%	-1.4%	-10
O=[N+]([O-])c1cc(Cc2ccccc2)cc(C=Nc2ccc(N3CCOCC3)cc2)c1O	0	-17%	nt	-26%	1%	-2.3%	24
CCN(C(=O)COC(=O)c1ncc(Cl)c(Cl)c1Cl)c1c(N)n(Cc2ccccc2)c(=O)[nH]c1=O	6	nt	nt	-7%	-13%	0.4%	nt
CC/C=C/C(=O)N1CC2(CC(c3cccc(NC(=O)CC(c4ccccc4)c4ccccc4)c3)=NO2)C[C@@H]1C(N)=O (stereo not given in full)	-13	-8%	2.8	-12%	?	-2.9%	?
CCOC(=O)c1c(/N=C/C2C(=O)CC(C)(C)CC2=O)sc(C)c1C	-9	11%	nt	9%	-1%	-0.3%	-5
O=C(N/N=C\c1cc(Br)c(Br)o1)c1cncc(Br)c1	0	-13%	7.3	-18%	-20%	-0.8%	-14
O=C(c1c(F)c(F)c(F)c(F)c1F)N1CCc2ccccc21	10	nt	nt	-15%	13%	0.2%	nt
O=[N+]([O-])c1ccc(COc2cccc(CN3CCCC3)c2)cc1	-7	nt	nt	5%	nt	0.4%	nt
Clc1cccc(Cn2ncc3ccccc32)c1	nt	-5%	0.1	-10%	0%	-0.3%	4
CC1CCCCN1C(=O)C1CC(c2ccc(F)cc2)=NO1 (stereo not given)	8	1%	-2.3	-5%	-13%	1.2%	-15
CCS(=O)(=O)N1CCC(c2nc(-c3ccc(C(F)(F)F)cc3)no2)CC1	1	10%	1.1	0%	2%	1.2%	-7
CCOC(=O)C1=CC[C@H]2c3c(c4ccccc4n3C)C[C@H]1N2C	-11	nt	nt	-4%	0%	-0.9%	7
CC(C)N(Cc1cn[nH]c1-c1ccc(-c2ccccc2)cc1)Cc1nccn1C	-18	-3%	1.7	-10%	11%	nt	-5
COc1ccc(C(CC(=O)O)c2ccc3c(c2)OCO3)cc1 (stereo not given)	2	13%	0.4	-4%	9%[15.4 µM]	-10.0%	-11
C=CCn1c(CSc2nc3ccccc3s2)nnc1SCC(=O)NCc1cccnc1	-2	-6%	1.8	2%	-29%	-0.1%	11
Cc1ccccc1-c1nnn(Cc2ccc(F)cc2Cl)n1	11	9%	3.7	8%	-30%[inhibitor]	-0.6%	9
CCCc1nnc(NC(=S)Nc2ccccc2)s1	5	8%	3.0	14%	1%[15.4 µM]	-0.5%	15
CN1C[C@@H]2C(c3ccccc3)C3(c4cccnc4)CC2(C3)[C@H]1c1ccccc1 (stereo not given in full)	-20	12%&5%	-3.7&4.3	-10%	nt	-3.0%	-9
Cc1cc(C)nc(N2C(=O)CC(C(C)c3ccccc3)C2=O)n1 (stereo not given)	1	7%	3.2	9%	10%	4.2%	nt
COc1ccc(N(C(=O)CNS(=O)(=O)c2ccccc2)C(C(=O)NCc2ccco2)C(C)C)cc1 (stereo not given)	-7	8%	0.6	-6%	-3%	nt	4
Cc1ccc(F)cc1N=Cc1c(O)c2ccccc2oc1=O	-1	24%	-1.7	-1%	7%	-2.1%	18
Cc1ccccc1NC(=O)Cn1c(=O)sc2ccccc21	0	12%	1.3	8%	-3%[15.4 µM]	-1.8%	24
O=C(Cc1ccc(NC(=O)C2CCCN(C(=O)C3CCC3)C2)cc1)Nc1ccc(C(=O)N2CCOCC2)cc1 (stereo not given)	5	nt	nt	11%	nt	0.3%	nt
On1c(-c2ccccc2)nc2ccccc21	7	-2%	2.1	-9%	35%[15.4 µM]	nt	2
Cc1cccc(C(=O)OCC(=O)c2cccc(Br)c2)c1O	-1	10%	nt	3%	-4%	-4.0%	6
CC1(c2ccccc2)CC(C)(C)N2C(=O)C3(C(C#N)=C(N)Oc4cc(O)ccc43)c3cccc1c32 (stereo not given)	-19	8%	1.1	?	5%	-3.3%	-17
Clc1ccc(Sc2ccc(/C=N/n3cnnc3)o2)cc1	9	-14%	0.7	4%	-1%	-12%	-17
CCOC(=O)CNC(=O)C(Cc1ccccc1)NS(=O)(=O)c1cccs1 (stereo not given)	-4	11%	1.7	-19%	0%	-11%	1
Cc1cc(Br)ccc1NC(=O)CNC(=O)COc1ccccc1C	-7	nt	nt	5%	2%	-0.3%	6
CC1CC1C(=O)OCC(=O)NC(=O)c1ccccc1 (stereo not given)	3	nt	nt	4%	24%[15.4 µM]	1.2%	-5
COc1c(C=O)cc2c3c1CCCN3CCC2	-2	2%	5.8	-1%	0%[15.4 µM]	-1.3%	3
COc1ccccc1NC(=O)C(=O)NCCC1CCCCN1S(=O)(=O)c1cccs1 (stereo not given)	0	nt	nt	-6%	5%[15.4 µM]	nt	-18
COc1ccc(C2CC(c3ccc4ccccc4c3)=NN2C(=O)COC(=O)C2CCC(=O)N2)cc1 (stereo not given)	-5	-23%	-4.2	-12%	5%[15.4 µM]	14%	2
COc1ccc(OC[C@@H](O)CNC(=O)c2cccc3c2C(=O)c2ccc(Cl)cc2S3(=O)=O)cc1	0	nt	nt	-8%	nt	-3.2%	?
Cc1cccc(C)c1NC(=O)c1ccc(-n2cnnn2)cc1	4	5%	0.8	12%	-13%	-2.2%	2
O=C(/C=C/Nc1ccc(Br)cc1F)c1ccco1	-12	-4%	2.4	nt	-2%[15.4 µM]	nt	-23
OCC[C@H]1C[C@H](O)[C@@H](O)[C@@]2(OCCCc3ccccc32)O1	8	nt	nt	11%	22%	0.5%	13
Cc1ccc(N=Cc2c(O)[nH]c3ccccc23)c([N+](=O)[O-])c1	0	-6%	-5.6	-1%	-33%[inhibitor]	nt	-8
CCOC(=O)CNC(=S)n1cnc(N)n1	18	18µM*	-2.9	nt	-7%[15.4 µM]	nt	?
CCN1C(=O)/C(=C2\SC(N3CCCCC3)=NC2=O)c2ccccc21	-12	-6%	-0.5	3%	-40%[inhibitor]	-4.3%	nt
Cc1cc(C)c(C#N)c(SCc2ccc([N+](=O)[O-])cc2)n1	-4	7%	-7.0	8%	-2%[15.4 µM]	nt	10

Arranged by value in gsp ag (high to low): 3 of the compounds above.
SMILES | CtBP-E1A inh | Sfp PPTase inh | Menin-MLL FL inh | gsp antagonist | gsp ag
OCC[C@H]1C[C@H](O)[C@@H](O)[C@@]2(OCCCc3ccccc32)O1 | 8 | nt | nt | 11% | 22%
CCOC(=O)CNC(=O)C(Cc1ccccc1)NS(=O)(=O)c1cccs1 (stereo not given) | -4 | 11% | 1.7 | -19% | 0%
Cc1cccc(C)c1NC(=O)c1ccc(-n2cnnn2)cc1 | 4 | 5% | 0.8 | 12% | -13%

(continued)
SMILES	CtBP-E1A inh	Sfp PPTase inh	Menin-MLL FL inh	gsp antagonist	gsp ag	ClpP mod	TRPV1 potentiator
Cc1ccc2c(c1)nnn2C1CCN(CC(=O)Nc2ccc3c(c2)OCCO3)CC1	3	-11%	0.2	-3%	-9%	-0.8%	3
COc1cc(SC)ccc1C(=O)NCC1CCCO1 (stereo not given)	-1	-10%	0.4	1%	11%	-2.5%	-5
CCCCN(C(=O)CC1CCCC1)c1c(N)n(CCCC)c(=O)[nH]c1=O	nt	nt	nt	0%	-5%	1.8%	4
COc1ccc(-c2cc(C(=O)N/N=C/c3ccc(OC)c(COCC(F)(F)C(F)F)c3)c3ccccc3n2)c(OC)c1	-7	18%	5.7	-3%	7%	?	3
CCOc1cc(C(=S)N2CCCC2)ccc1O	-3	35µM*	-7.2	10%	-15%[15.4 µM]	0.4%	?
CCOCCn1ccc2c(OCC(=O)NCc3ccccc3)cccc2c1=O	7	nt	nt	-21%	-22%	-18%	4
COC(=O)C(=C/C(C)=C/c1cccs1)C(=O)OC	3	5%	-3.4	-2%	5%[15.4 µM]	nt	-6
CCOC(=O)N1CCC(N2Cc3cccc(C(=O)NC(C)c4ccc5c(c4)OCCO5)c3C2=O)CC1 (stereo not given)	-9	-22%	1.1	-16%	15%	-3.8%	0
O=Cc1cn(CCC(=O)O)nc1-c1cccc(Br)c1	0	8%	1.5	-2%	-54%[inhibitor]	nt	6
O=C(CCN1CCCCCC1)Nc1cccc(Cl)c1	3	5%	-1.4	12%	-24%	-1.5%	6
CCN(CC)C(=O)C1CCCN(Cc2nc(-c3cccs3)no2)C1 (stereo not given)	8	13%	-3.6	-1%	7%	nt	2
COc1cccc(C(=O)c2ccccc2NC(C)=O)c1	2	nt	nt	nt	-24%	1.8%	nt
COc1ccc(NC(=O)CCC(=O)N2CCC(c3ccccc3)=N2)cc1S(=O)(=O)N1CCCCC1	10	nt	nt	?	24%	0.8%	nt
N#CC1=C(N)Oc2cc(O)c(Cl)cc2C1c1cccnc1 (stereo not given)	nt	-23%	?	0%	-14%	-4.3%	1
O=C(/C=C/c1ccco1)NC(=S)Nc1ccccc1	nt	-16%	?	-10%	12%	1.0%	-9
COC(=O)/C(=C\c1ccc([N+](=O)[O-])cc1)NC(=O)c1ccccc1	-91*	nt	nt	-14%	?	nt	nt
Cc1ccc(Nc2nnc(SCC3CCCCO3)s2)cc1 (stereo not given)	-3	-11%	-0.3	-2%	-27%	0.5%	-5
C=CCc1c(C)[nH]c2c(OC)cccc2c1=S	-6	13µM*	-3.0	-2%	-11%[15.4 µM]	nt	-5
C[C@@]12C(=O)N(c3ccc(Cl)cc3)C(=O)N1[C@@H]1c3ccccc3OC[C@@H]1[C@H]2c1ccccc1	0	nt	nt	-10%	?	0.9%	nt
CCC(=O)c1ccc(OCC(O)CN(C)C2CCCCC2)cc1 (stereo not given)	0	7%	-1.2	10%	13%	-3.4%	12
CCCn1c(=O)c(C(=O)Nc2ncccc2O)c(O)c2ccccc21	5	-3%	-3.2	-3%	1%[15.4 µM]	0.2%	13
